# rRNA inh HTS: inhibits bacterial ribosomal RNA function over humanized ribosomes | E. coli WT GFP vs humanized-ribosome RFP mutants, fluorescence, 24 h; active compounds read low; DMSO median 0, no signal -100 | GFP signal change (wild-type ribosome), % (concentration not given with the values) | hit rate 1.6% among 350,000;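 active = significant combined selectivity score with lowered wild-type GFP, culture density cut under 30%, mutant RFP and density less affected; inactive = any of these conditions unmet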; also: one replicate is shown; some compounds called inactive have numbers as strong as hits
# MLL AF4-AF9 inh: blocks AF4 peptide binding to human AF9 | AlphaScreen, biotin-AF4 peptide binding to FLAG-AF9 | inhibition, % at 10 µM | hit rate 0.47% among 350,000 | AID 651704;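 active = every replicate reaching a set inhibition limit, whatever the replicate mean, cut at about 25% in these data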;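 also: 0% = plate neutral control median and 100% = total signal loss; the record names both 10 and 1 µM as test concentration; the first replicate is given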
# Target sequence (P42568 whole entry, looked up): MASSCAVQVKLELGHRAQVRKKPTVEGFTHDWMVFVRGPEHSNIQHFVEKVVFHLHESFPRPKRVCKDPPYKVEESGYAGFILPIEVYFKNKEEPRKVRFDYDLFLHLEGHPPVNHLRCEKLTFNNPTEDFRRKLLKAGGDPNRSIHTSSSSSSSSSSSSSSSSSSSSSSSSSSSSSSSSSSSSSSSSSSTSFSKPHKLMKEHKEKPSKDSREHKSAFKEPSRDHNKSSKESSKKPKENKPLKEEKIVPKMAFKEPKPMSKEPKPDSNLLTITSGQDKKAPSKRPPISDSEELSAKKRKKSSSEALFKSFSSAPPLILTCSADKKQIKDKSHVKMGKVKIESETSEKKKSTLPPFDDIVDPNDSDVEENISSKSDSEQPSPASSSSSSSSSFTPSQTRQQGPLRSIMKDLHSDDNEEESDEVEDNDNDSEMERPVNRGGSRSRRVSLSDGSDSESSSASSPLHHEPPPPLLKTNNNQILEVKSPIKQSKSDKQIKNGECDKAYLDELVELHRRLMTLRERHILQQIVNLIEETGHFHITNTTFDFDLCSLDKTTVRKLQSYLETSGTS
# rRNA inh HTS OD600: recorded beside rRNA inh HTS, whose call it bears; OD600 change, %; measured here: OD600 growth;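 optical density of the mix in the first replicate; 0 = DMSO median and -100 = no signal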
# rRNA inh HTS RFP: second read-out of rRNA inh HTS, no call of its own (marks repeat the call); RFP signal change, %; measured here: RFP humanized mutant strains;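 first replicate; 0 = DMSO median and -100 = no signal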
# Active calls of the source: *; & = joins results of further samples.
SMILES,rRNA inh HTS,rRNA inh HTS OD600,rRNA inh HTS RFP,MLL AF4-AF9 inh
CC(C)C#Cc1ccc([C@@H]2[C@@H](CO)N3CCCCN(C(=O)Nc4ccccc4)C[C@H]23)cc1,-55,-75,-16,11
N#C[C@H]1[C@H](c2ccccc2)[C@H](CO)N1C(=O)c1cccnc1,8,13,-3.6,-1.7
CC(C)NC(=O)Nc1ccc2c(c1)CC(=O)N([C@@H](C)CO)C[C@H](C)[C@H](CN(C)C(=O)Nc1cccc3ccccc13)O2,1,-2,-2.1,-2.0
Cc1cccc(-c2ccc(C3[C@H]4CNC[C@@H]3N4C(=O)Nc3ccc(F)cc3)cc2)c1 (some centres not stated),2&-61,16&-79,6.7&-19,0.5
CN1CCN2c3ccccc3CC(C#N)(C#N)C2C1 (configuration not stated),2,3,0.0,-0.4
CC(=O)N1[C@H](C(=O)Nc2nccs2)[C@@H](CO)[C@@H]2Cn3c(ccc(/C=C/c4ccccc4)c3=O)[C@@H]21,-9,-12,6.1,-7.9
C[C@@H]1CN([C@@H](C)CO)C(=O)Cc2cc(NC(=O)CCC(F)(F)F)ccc2O[C@@H]1CN(C)S(C)(=O)=O,2,-8,0.7,-12
CCCCCc1c(Cc2ccccc2)ncn1CCc1ccccc1OC,-56,-80,-18,9.3
C[C@H]1CCCCO[C@@H](CN(C)C(=O)Nc2ccccc2)[C@@H](C)CN([C@@H](C)CO)C(=O)c2cc(NC(=O)NC3CCCCC3)ccc2O1,5,6,-1.3,-1.0
C[C@@H]1CCCCO[C@@H](CN(C)C(=O)c2ccccc2)[C@H](C)CN([C@@H](C)CO)C(=O)c2cc(NC(=O)NC3CCCCC3)ccc2O1,-4,-11,1.1,1.5
C/C=C/c1ccccc1[C@@H]1[C@@H](CO)N(C(=O)Cc2ccccn2)[C@H]1C#N,-4,-10,1.9,-0.1
COC(=O)C[C@@H]1C[C@H]2c3cc(N)ccc3O[C@H]2[C@H](CO)O1,-2,-16,-0.1,8.8
COC(=O)C1(F)C(=O)NC(=O)NC1OC (configuration not stated),2,-16,-10,-3.6
C[C@@H]1CN([C@@H](C)CO)C(=O)Cc2cc(NC(=O)CCCCCC(=O)Nc3ccccc3N)ccc2O[C@H]1CN(C)C(=O)Nc1ccccc1,0,10,-2.2,-5.1
O=C(Cc1ccccn1)NCC[C@H]1CC[C@@H](NS(=O)(=O)c2ccc(Cl)cc2)[C@H](CO)O1,0,1,-0.4,-0.1
COc1ccc2c3c(n(C)c2c1)[C@H](CO)N(CC1CCCC1)CC31CN(C(=O)Nc2ccccc2)C1,-5,-1,0.1,-1.2
CC(C)(C)[S@](=O)N1Cc2cc(C(=O)NCc3ccncc3)nc(-c3cccc(-c4cccc(C#N)c4)c3)c2[C@@H]1CCO,-1,2,0.9,2.8
C[C@@H]1CN([C@@H](C)CO)C(=O)Cc2cc(NC(=O)Nc3ccccc3)ccc2O[C@H]1CN(C)C(=O)Nc1ccc2c(c1)OCO2,-2,-2,2.4,4.0
COc1cccc(NC(=O)N2CC(=O)N3[C@@H](CO)[C@@H](c4ccc(C#CC5CCCC5)cc4)[C@@H]3C2)c1,0,-3,3.1,2.0
Cc1ccc(S(=O)(=O)NC(=O)C2(C)CCN2C(=O)Cc2cccs2)nc1 (configuration not stated),7,19,0.2,-2.4
COc1ccc(-c2cnc3c(NC(C)=O)cc(-c4cccc(C(=O)NCCN(C)C)c4)cn23)cc1OC,1,4,-2.0,17
CO[C@H]1CN(C)C(=O)c2ccc(NC(=O)c3ccc(F)cc3)cc2OC[C@@H](C)N(C(=O)CC2CC2)C[C@@H]1C,-4,2,1.5,-2.3
O=C(Nc1ccc2c(c1)OCO2)c1cc(C2CCCCN2C(=O)c2ccc3ccccc3c2)on1 (configuration not stated),-3,9,0.0,-11
CN(C)CC(=O)N[C@H]1C=C[C@H](CC(=O)O)O[C@@H]1CO,1,1,-1.1,-1.0
COc1ccc(NC(=O)Nc2ccc3c(c2)[C@H]2C[C@H](CC(=O)NCc4ccc5c(c4)OCO5)O[C@@H](CO)[C@H]2O3)cc1,3,8,-5.5,-0.6
C[C@@H]1CCCCO[C@@H](CN(C)C(=O)c2ccccc2)[C@H](C)CN([C@H](C)CO)C(=O)c2cc(NC(=O)C3CCCCC3)ccc2O1,-3,-4,1.6,0.6
COCC#Cc1ccc2c(c1)O[C@H](CN(C)Cc1cccnc1)[C@H](C)CN([C@@H](C)CO)S2(=O)=O,-6,-7,1.3,-0.7
C[C@H]1CN([C@@H](C)CO)C(=O)c2cc(NC(=O)Cc3ccccc3)ccc2O[C@@H]1CN(C)CC1CCCCC1,6,22,0.6,-3.2
CCCCN1CC(C)(C)[C@H](CC(=O)Nc2ccc(Br)cc2)C1=O,-13,-27,-4.2,-2.1
O=C(CC1CC1)N1CC(=O)N2[C@H](C1)[C@@H](c1ccc(/C=C/c3ccccc3)cc1)[C@@H]2CO,1,1,5.8,0.9
O=C(C[C@H]1C=C[C@H](NC(=O)C2CCOCC2)[C@@H](CO)O1)NCC1CCCCC1,0,-3,-0.3,-1.0
COc1ccc(CCNC(=O)COC(=O)c2cc(S(=O)(=O)N3CCCC3)ccc2O)cc1,6,12,0.7,-1.0
CCCCNc1nc(NCc2ccccc2)nc2ccccc12,-37,-79,-24,2.1
COc1ccc(C#Cc2ccc([C@H]3[C@H](CO)N4C(=O)CN(C(=O)Nc5ccccc5F)C[C@@H]34)cc2)cc1,-3,-8,-1.0,-3.7
C[C@@H]1CN([C@H](C)CO)C(=O)c2cccc(NC(=O)c3cnccn3)c2O[C@@H]1CN(C)CC1CCCCC1,2,20,-2.1,-2.8
O=C(C[C@@H]1C=C[C@H](NS(=O)(=O)c2ccccc2)[C@@H](CO)O1)N1CCC(Cc2ccccc2)CC1,-7,-18,-6.8,-2.6
CCCNC(=O)C[C@@H]1CC[C@H]2[C@H](COc3ccc(NC(=O)c4cscn4)cc3C(=O)N2C)O1,-1,-4,0.3,-3.0
CO[C@@H]1CN(C)C(=O)c2cc(NC(C)=O)ccc2OC[C@H](C)N(C(=O)CC2CC2)C[C@@H]1C,0,1,-0.7,-0.3
Cc1cccc(S(=O)(=O)N(C)C[C@@H]2OCc3ccccc3-c3ccccc3C(=O)N([C@@H](C)CO)C[C@H]2C)c1,-8,1,-7.4,14
CN(C)CC(=O)N[C@@H]1CC[C@H](CC(=O)NCc2ccccc2F)O[C@H]1CO,0,-3,0.3,-3.2

# Part of the list above, reformatted:
# Values in the order: rRNA inh HTS | rRNA inh HTS OD600 | rRNA inh HTS RFP | MLL AF4-AF9 inh
O=C(C[C@H]1C=C[C@H](NC(=O)C2CCOCC2)[C@@H](CO)O1)NCC1CCCCC1
    0 | -3 | -0.3 | -1.0
COc1ccc(CCNC(=O)COC(=O)c2cc(S(=O)(=O)N3CCCC3)ccc2O)cc1
    6 | 12 | 0.7 | -1.0
CCCCNc1nc(NCc2ccccc2)nc2ccccc12
    -37 | -79 | -24 | 2.1
COc1ccc(C#Cc2ccc([C@H]3[C@H](CO)N4C(=O)CN(C(=O)Nc5ccccc5F)C[C@@H]34)cc2)cc1
    -3 | -8 | -1.0 | -3.7
C[C@@H]1CN([C@H](C)CO)C(=O)c2cccc(NC(=O)c3cnccn3)c2O[C@@H]1CN(C)CC1CCCCC1
    2 | 20 | -2.1 | -2.8
O=C(C[C@@H]1C=C[C@H](NS(=O)(=O)c2ccccc2)[C@@H](CO)O1)N1CCC(Cc2ccccc2)CC1
    -7 | -18 | -6.8 | -2.6
CCCNC(=O)C[C@@H]1CC[C@H]2[C@H](COc3ccc(NC(=O)c4cscn4)cc3C(=O)N2C)O1
    -1 | -4 | 0.3 | -3.0
CO[C@@H]1CN(C)C(=O)c2cc(NC(C)=O)ccc2OC[C@H](C)N(C(=O)CC2CC2)C[C@@H]1C
    0 | 1 | -0.7 | -0.3
Cc1cccc(S(=O)(=O)N(C)C[C@@H]2OCc3ccccc3-c3ccccc3C(=O)N([C@@H](C)CO)C[C@H]2C)c1
    -8 | 1 | -7.4 | 14
CN(C)CC(=O)N[C@@H]1CC[C@H](CC(=O)NCc2ccccc2F)O[C@H]1CO
    0 | -3 | 0.3 | -3.2

# Following part.
SMILES,rRNA inh HTS,rRNA inh HTS OD600,rRNA inh HTS RFP,MLL AF4-AF9 inh
N#C[C@@H]1[C@H](c2ccccc2C2=CCCC2)[C@@H](CO)N1C(=O)CN1CCOCC1,1,26,-3.7,-2.1
CN(Cc1ccccc1)C(=O)[C@@H]1CCCN1C(=O)[C@@H]1CCCN1C(=O)c1cccs1,22,12,1.9,-0.9
CCNC(=S)Nc1ccc2c(c1)c(=O)n(C)n2CC=C(C)C,4,9,1.7,11
C[C@H]1CN([C@@H](C)CO)C(=O)Cc2cc(NC(=O)Nc3ccc(C(F)(F)F)cc3)ccc2O[C@H]1CN(C)Cc1ccc(C(=O)O)cc1,-3,-3,-2.4,-1.5
CCC(=O)Nc1ccc2c(c1)OC[C@@H](C)N(C(=O)CN(C)C)C[C@@H](C)[C@H](OC)CN(C)C2=O,2,3,0.9,-3.4
CN(C)CCCNC(=O)[C@@H]1[C@@H](CO)[C@@H]2Cn3c(cccc3=O)[C@H]1N2C(=O)Nc1cc(F)ccc1F,1,7,-2.6,-0.3
COCC(=O)N1[C@@H](C#N)[C@H](c2ccc(-c3cccc(F)c3)cc2)[C@@H]1CO,-4,5,1.7,-1.1
CC(C)(C)n1c(O)c2n(c1=O)Cc1ccccc1N=C2c1ccccc1,-2,-11,-9.9,3.8
C[C@H]1CN([C@@H](C)CO)C(=O)c2cc(NC(=O)Nc3cccc4ccccc34)ccc2O[C@H]1CN(C)S(=O)(=O)c1cn(C)cn1,1,-8,-1.5,0.2
CCC(=O)N1CCCCN2[C@H](C1)[C@@H](c1ccc(C#Cc3ccccc3)cc1)[C@@H]2CO,-57,-78,-11,-6.8
C[C@@H]1CN([C@@H](C)CO)C(=O)c2cc(C#Cc3ccncc3)cnc2O[C@H]1CN(C)CC1CCCC1,3,0,0.8,-7.2
C[C@H](O)C#Cc1ccc2c(c1)O[C@H](CN(C)C(=O)Cc1ccccn1)[C@H](C)CN([C@H](C)CO)S2(=O)=O,4,3,-2.5,-4.5
CCCNC(=O)C[C@@H]1CC[C@H]2[C@@H](COC[C@@H](O)CN2C(=O)c2cc(Cl)cc(Cl)c2)O1,0,-11,-3.7,-2.0
CO[C@@H]1CN(C)C(=O)c2ccc(NS(C)(=O)=O)cc2OC[C@@H](C)N(C(=O)CC2CC2)C[C@H]1C,1,3,-1.2,-0.7
COCC(=O)N1C[C@@H](C)[C@H](OC)CN(C)C(=O)c2cc(NC(=O)c3cc(C)on3)ccc2OC[C@H]1C,2,3,-2.3,-9.0
COc1ccc(S(=O)(=O)Nc2ccc3c(c2)CC(=O)N([C@H](C)CO)C[C@H](C)[C@H](CN(C)Cc2ccc(C(F)(F)F)cc2)O3)cc1,-1,-12,1.0,-0.5
CCCNC(=O)N1[C@H](CO)[C@H](c2ccccc2-c2ccccc2F)[C@@H]1C#N,-6,-8,-1.5,-1.5
CN1C(=O)c2cc(NC(=O)Nc3ccccc3)ccc2OC[C@H]2O[C@@H](CC(=O)O)CC[C@@H]21,2,1,-4.2,0.4
CCCS(=O)(=O)NC(=O)C1(C)CCCN(C(=O)c2cc(C)on2)C1 (configuration not stated),18,14,0.6,-2.0
COc1ccc2c3c(n(C)c2c1)[C@@H](CO)N(C(=O)Nc1ccc(F)cc1)CC31CN(C(=O)c2ccccc2F)C1,6,-4,6.0,-1.8
C[C@@H]1CCCCO[C@@H](CN(C)Cc2ccc(C(=O)O)cc2)[C@H](C)CN([C@H](C)CO)C(=O)c2cc(NC(=O)Cc3ccccc3)ccc2O1,6,5,-1.3,-4.1
Cc1ccccc1S(=O)(=O)NC(=O)C1(C)CCN1C(=O)CC1CCCCC1 (configuration not stated),11,20,0.2,-2.9
Cc1noc(C)c1S(=O)(=O)Nc1ccc2c(c1)C(=O)N([C@@H](C)CO)C[C@H](C)[C@H](CN(C)C(=O)NC1CCCCC1)OCCCC[C@H](C)O2,1,4,0.1,-1.2
N#C[C@H]1[C@H](c2ccc(C#Cc3ccc(F)cc3)cc2)[C@H](CO)N1c1nc(-c2ccccc2)cs1,-4,-1,-0.3,-0.2
C[C@@H]1CN([C@@H](C)CO)C(=O)c2cc(NC(=O)Nc3ccccc3)ccc2O[C@@H](C)CCCCO[C@H]1CN(C)Cc1ccccc1,-7,4,-1.6,14
c1ccc(CN2CCCC3CC2c2ccccc23)cc1 (configuration not stated),5,0,-2.6,2.5
CC1(C(=O)Nc2cccc(Oc3ccccc3)c2)CCN1Cc1ccccc1OC(F)F (configuration not stated),10,-2,1.0,0.0
C[C@H]1CN([C@@H](C)CO)C(=O)Cc2cc(NS(=O)(=O)c3cccs3)ccc2O[C@@H]1CN(C)Cc1ccccc1,-9,-37,-4.7,-5.9
COc1ccc(CN2C[C@H](O)COC[C@@H]3O[C@@H](CC(=O)N(C)C)CC[C@H]32)cc1,7,8,-0.3,-3.1
O=C(NN=C1CCC(=NNC(=O)c2ccccn2)CC1)c1ccccn1,10,16,0.7,2.7

# Assay outcomes from PubChem.

# A portion of the library; count on the stated rates, not on these rows.
